High-throughput results (PubChem BioAssay)
Rango-impB inh = inhibitors of Rango-importin beta complex formation; Q14974; Rango CFP/YFP FRET sensor + importin beta, 45 min; Potency, µM (highest dose often 92.2 µM), without a hit: at the top dose inhibition of complex formation; 0.031% of 340,000 active; AID 540263; active = rising FRET ratio curve, often small or poorly fitted; inconclusive = mostly compound fluorescence or quenching in the first reads; inactive = flat curves in all reads;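 further: potency means the concentration at half of the fitted maximal effect; 0% = DMSO wells and 100% = buffer wells lacking importin beta; nearly all actives have a fitted effect of over 15% in size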
Target sequence (Q14974 whole entry, looked up): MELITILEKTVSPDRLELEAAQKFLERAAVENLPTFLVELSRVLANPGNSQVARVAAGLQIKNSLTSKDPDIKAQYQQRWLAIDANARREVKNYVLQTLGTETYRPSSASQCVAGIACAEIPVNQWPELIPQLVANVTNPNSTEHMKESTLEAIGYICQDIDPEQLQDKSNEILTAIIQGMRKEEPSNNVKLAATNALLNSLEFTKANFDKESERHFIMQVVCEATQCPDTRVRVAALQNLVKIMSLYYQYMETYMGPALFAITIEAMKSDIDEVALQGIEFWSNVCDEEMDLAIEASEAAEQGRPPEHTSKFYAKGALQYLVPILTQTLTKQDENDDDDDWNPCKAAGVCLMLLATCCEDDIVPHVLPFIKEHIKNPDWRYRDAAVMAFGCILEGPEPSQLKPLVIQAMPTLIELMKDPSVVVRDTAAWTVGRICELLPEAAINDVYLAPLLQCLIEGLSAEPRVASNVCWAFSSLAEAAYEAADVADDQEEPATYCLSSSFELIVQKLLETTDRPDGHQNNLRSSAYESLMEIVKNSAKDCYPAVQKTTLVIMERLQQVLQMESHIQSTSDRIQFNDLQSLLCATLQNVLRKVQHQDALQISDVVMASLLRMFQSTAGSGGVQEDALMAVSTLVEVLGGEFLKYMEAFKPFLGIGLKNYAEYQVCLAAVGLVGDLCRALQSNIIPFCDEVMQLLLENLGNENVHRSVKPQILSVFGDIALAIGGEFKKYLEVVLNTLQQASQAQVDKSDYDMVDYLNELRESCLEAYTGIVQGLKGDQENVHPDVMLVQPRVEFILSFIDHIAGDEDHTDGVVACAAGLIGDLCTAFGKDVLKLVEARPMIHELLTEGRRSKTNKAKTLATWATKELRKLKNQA
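FRET biosensor Rango (snurportin 1 IBB between N-terminal EYFP and C-terminal Cerulean), 50 nM in PBS/1 mM DTT/0.02% Tween-20/0.1% BSA, preincubated 5 min RT with compound; 0.125 microM importin beta added, 45 min RT, CFP/YFP FRET ratio read.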
Rango release inh = prevents RanGTP from dissociating the Rango-importin beta complex | O95149+P62826 | Biochemical FRET Rango-importin beta, RanGTP-induced dissociation | Potency, µM (series often up to 46.1 µM), without a hit: at the top dose activity change, negative = inhibition | 0.071% of 340,000 active | AID 540253; active means falling FRET ratio curve, often poorly fitted, with flat reads before Ran was added; inconclusive means other falling curves, or compound fluorescence or quenching; inactive means flat or rising ratio curve;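 further: potency means the concentration at half of the fitted maximal effect; % of control where 0% means no effect; nearly all actives have a fitted effect of over 45% in size; -100% = wells without RanGTP and RCC1; the record marks most hits as doubtful in a second field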
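Compounds sat 5 min at room temperature with 0.1 uM Rango biosensor plus 0.25 uM importin beta, then FRET pre-read. RanGTP-RCC1 (0.6 uM Ran, 2mM GTP, 0.2 uM RCC1) added for 45 min, and the CFP/YFP post-read measured blocked complex dissociation.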
miR-21 reporter = miR-21 reporter, rising signal | HeLa miR-21 FLuc reporter, luciferase, 48 h | Potency, µM (series often up to 38.3 µM), inactives show at the highest dose reporter change, positive = more light | 340,000 tested, under 10 active; active = well fitted rising curve with a large enough effect; inconclusive = small, poorly fitted or top-dose-only effect; inactive = no such curve, though single readings can be large or run the other way;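 further: % of control where 0% means no effect; miR-21 action dims this reporter so a rising signal means less miR-21 action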
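Compounds were titrated across several concentrations (up to approximately 40 uM) and incubated 48 hours with HeLa miR-21-FLuc reporter cells (miR-21 target sequence downstream of FLuc, endogenous miR-21). Readout was firefly luciferase luminescence after lytic detection reagent.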
GLA inh pH 4.5 = inhibitors of human alpha-galactosidase A at pH 4.5; purified enzyme, 4-MU-alpha-Gal fluorescence, pH 4.5; P06280; 230,000 tested, under 10 active; AID 1467; activity change, negative = inhibition, % at 105 µM; inconclusive = small, poorly fitted or top-dose-only inhibition, or a rising curve; inactive = flat fitted curve, though single readings scatter; no compound was filed as active;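 further: 0% = full activity with enzyme and -100% = basal without enzyme; dose as in the result columns while the protocol names 77 µM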
Starred values were filed as active, the others as inactive; ? = inconclusive; . = not tested or not shown.

Values run as follows: Rango-impB inh, Rango release inh, miR-21 reporter, GLA inh pH 4.5
> CCCOc1ccc(CSCCNC(=S)Nc2ccccc2)cc1
    -2.4%, 12%, ?, -7
> CCOc1ccc(NC(=O)CN(C)C(=O)CCC2CCCCC2)cc1OCC
    1.9%, 1%, ., .
> COc1cccc(/C=C/C(=O)c2ccc[nH]2)c1
    -2.4%, -1%, -18%, -10
> C/C(CC(=O)Nc1cccc2c1CCCC2)=N\NC(=O)COc1ccccc1
    2.1%, 3%, -10%, 9
> O=C(c1ccc2c(c1)OCO2)N1CCC2(CC1)Oc1ccc(F)cc1C(=O)C21CC(c2ccccc2)=NO1 (configuration not stated)
    0.8%, 3%, 2%, -2
> CCOC(=O)C(/C(N)=N/C(=O)Nc1ccccc1)=C(\C)O
    -0.1%, 1%, -4%, -1
> CCOc1ccccc1OCCn1nnc2ccccc21
    -0.6%, -5%, -23%, -5
> Cc1c(Cl)cccc1NC(=O)CSc1nnnn1C
    0.1%, 2%, ., .
> COc1ccc(CCNC(=O)C2CC(c3ccccc3C(F)(F)F)=NO2)cc1 (configuration not stated)
    -0.3%, -9%, -2%, -11
> COCCCNC(=O)c1cc(C(=O)Cc2ccccc2)c[nH]1
    -3.4%, -5%, -4%, ?
> Cc1ccc(OCc2cc(C(=O)N(C)Cc3cnn(-c4ccccc4C)c3)no2)cn1
    4.1%, 17%, -3%, .
> O=C(Nc1ccc2c(c1)OCCO2)c1cc(-c2ccccn2)nc2ccc(Br)cc12
    0.3%, 17%, -6%, 4
> Cc1ccc(S(=O)(=O)NCC(=O)NCC(=O)OCc2c(F)cccc2Cl)cc1
    2.5%, 19%, -14%, 7
> C/C=C\C=C\C(=O)N1CC2(CC(c3cccc(NC(=O)CC(c4ccccc4)c4ccccc4)c3)=NO2)C[C@H]1C(N)=O (some centres not stated)
    1.7%, -16%, 12%, -7
> Cc1sc2ncnc(Nc3ccc(O)cc3)c2c1C
    -2.1%, 7%, -49%, 0
> COc1cccc(C2=NN(C(C)=O)C(c3cccs3)C2)c1 (configuration not stated)
    -1.1%, 10%, -46%, .
> CCC(/C=N/NC(=O)CCCCC(=O)N/N=C/C(CC)CC)CC
    13%, ?, 0%, -12
> COc1ccc(C(=O)COC(=O)c2ccc([N+](=O)[O-])s2)cc1OC
    -3.4%, -4%, ., .
> Cc1ccc(-c2[nH]nc(N)c2N=Nc2cccc(Cl)c2C)cc1
    -0.1%, 21%, 23%, 3
> O=C(CNS(=O)(=O)c1ccc(F)cc1)N1CCOCC1
    -1.9%, -1%, -2%, .
> O=C(c1ccc(N2CCN(C(=O)c3ccccc3Br)CC2)cc1)c1cccc(F)c1
    ?, -2%, -2%, .
> CCOC(=O)C1=C(C)c2ccccc2N(C(=O)OC)C1(C)C(=O)OCC (configuration not stated)
    0.1%, 7%, ., -9
> Cc1cccc(N2CCN(C(=O)CNC(=O)c3ccccc3)CC2)c1C
    -1.7%, 9%, -6%, .
> CCN1CCN(C(=O)c2cn(CC)c3ccc(S(=O)(=O)N(C)C)cc3c2=O)CC1
    -2.7%, -12%, -2%, 3
> CCOc1ccc(OCC)c(NC(=O)CN2CCN(CC)CC2)c1
    -4.8%, -10%, -4%, 5
> COc1ccc(NC(=O)CCC(=O)N2CCOCC2)c([N+](=O)[O-])c1
    -1.3%, -2%, -4%, .
> CCN1/C(=C2\C(=O)N(C)C(=S)N2C)C=Cc2cc(C)ccc21
    ?, -17%, -3%, 1
> O=C(O)COc1ccccc1/C=N/NC(=O)c1cc(-c2ccc(Cl)cc2)nc2ccccc12
    -2.5%, 14%, -5%, -5
> O=S(=O)(c1ccc(Cl)s1)N1CCC(Cc2ccccc2)CC1
    -0.6%, -14%, -6%, -2
> Cn1c(SCCOc2ccccc2F)nc2ccccc2c1=O
    3.1%, ?, 2%, -6

Other records
Values run as follows: Rango-impB inh, Rango release inh, miR-21 reporter, GLA inh pH 4.5
> Cc1ccc(NS(=O)(=O)c2c(C)[nH]c(C)c2C(=O)N2CCCCC2)c(Br)c1
    3.1%, -8%, -6%, .
> COc1ccc(-c2c(C(F)(F)F)nn(C)c2NC(=O)CSCC(=O)O)cc1
    -0.2%, 36%, 0%, 0
> CC(OC(=O)c1cccc(Cl)c1)C(=O)NC1CCCCC1C (configuration not stated)
    0.1%, 9%, 2%, .
> Cc1cc(C)c(C)c(S(=O)(=O)N[C@@H](C)C(=O)OC(C)C(=O)NC(N)=O)c1C (some centres not stated)
    -4.2%, 2%, 0%, 8
> COc1cc(/C=N/n2cnnc2)ccc1OC(=O)c1ccco1
    0.3%, -5%, -2%, -10
> COP(=O)(/C=C/c1ccccc1)C(O)c1ccc(F)cc1 (configuration not stated)
    0.1%, -3%, -6%, -4
> Cc1nc(C#N)c(N/N=C/c2cccc(Cl)c2)o1
    -0.2%, -20%, -61%, 2
> O=C(CN1CCCC1)Nc1ccc(-c2nc3cc(NC(=O)CN4CCCC4)ccc3o2)cc1
    -3.3%, -7%, -30%, -4
> CCCN(C(=O)CSc1nc2cc(S(=O)(=O)N(CC)CC)ccc2o1)C1CCS(=O)(=O)C1 (configuration not stated)
    -0.2%, 13%, ., .
> Cc1cc(N2C(=O)C(O)=C(C(=O)c3ccc(C)o3)C2c2cccs2)no1 (configuration not stated)
    ?, -20%, -1%, 5
> COc1ccc(N2C(=O)C(CN3CCN(C)CC3)C2c2ccccc2)cc1 (configuration not stated)
    -2.5%, -10%, 2%, 1
> CCc1cc[n+](CC(=O)Nc2ccc(Cl)cc2Cl)cc1
    ?, 7%, 1%, -9
> O=C(COc1ccc(/C=N/NC(=O)C(=O)N2CCCCCC2)cc1)Nc1ccccc1Cl
    -1.7%, -6%, -18%, -2
> Cc1ccc(CN(C(=O)c2csnn2)C(C(=O)NC2CCCC2)c2ccco2)cc1 (configuration not stated)
    -2.1%, 9%, 10%, .
> CSc1ccccc1NC(=O)CN(C)CC(=O)Nc1cc(C)ccc1C
    1.1%, 12%, -5%, -4
> O=S(=O)(Nc1nccs1)c1ccc(F)cc1
    1.1%, 0%, -31%, -3
> O=C(O)CSc1nnc(-c2ccco2)o1
    3.8%, 3%, 0%, -12
> CC(C)(C)N(Cc1ccccc1)C(=O)COC(=O)c1ccc(S(=O)(=O)N2CCOCC2)cc1
    -3.4%, -1%, ., .
> C[C@@H](NC(=O)[C@@H]1Cc2ccccc2CN1)C(=O)Nc1ccc2c(c1)OCCO2
    0.1%, -7%, -16%, .
> CCN1CCN(c2nc3c(c(=O)[nH]c(=O)n3C)n2Cc2ccccc2)CC1
    -0.5%, -8%, -10%, .
> Cc1nc(SCc2ccccc2)n[nH]1
    3.8%, 13%, -38%, .
> Cc1ccccc1NS(=O)(=O)c1ccc(OCC(=O)NCc2ccco2)cc1
    1.5%, 3%, 7%, -4
> COc1cccc(CNC(=O)CCC(=O)N2CCSc3ccccc32)c1OC
    0.1%, 1%, 3%, .
> Cc1cccc(N2C(=O)N3[C@@H]4c5ccccc5OC[C@@H]4[C@@H](c4ccccc4)[C@@]3(C)C2=O)c1
    0.5%, 4%, 1%, .
> CCN1CCC(O)(C#Cc2ccccc2)CC1
    -1.0%, 0%, -1%, .
> CCNc1cc2oc(=O)c(CN3CCOCC3)c(C)c2cc1C
    ?, ?, -10%, ?
> CN(C)CC1CCC/C(=C\c2ccc(OC(=O)/C=C/c3ccc(Cl)c(Cl)c3)cc2)C1=O (configuration not stated)
    8.4%, 11%, ., .
> O=C(Nc1cccnc1)OCc1ccccc1
    -1.2%, 22%, -39%, .
> COc1cc(/C=C/C(=O)N(C)CC(=O)Nc2ccccc2Br)cc2c1OCCO2
    0.0%, -6%, ., .
> O=C(COc1ccccc1N1C(=O)C2C3C=CC(C3)C2C1=O)c1ccccc1 (configuration not stated)
    5.2%, 16%, -17%, 1

(listing goes on)
| Molecule | Rango-impB inh | Rango release inh | miR-21 reporter | GLA inh pH 4.5 |
| --- | --- | --- | --- | --- |
| O=C(Oc1cc(-c2ccccc2)no1)c1cccc(C(F)(F)F)c1 | 0.2% | -7% | -1% | -2 |
| CCOc1ccc(S(=O)(=O)N/N=C(\C)C2CCCCC2)cc1 | -3.7% | 0% | 0% | 1 |
| COc1cccc(/C=N/NC(=O)CCn2cnc3ccccc32)c1 | -3.5% | 5% | -4% | 6 |
| CCOc1cc(C2C(C#N)=C(N)OC(C)=C2C(C)=O)cc(Br)c1O (configuration not stated) | ? | ? | -3% | -9 |
| CCCCN(C(=O)C1CC(=O)N(c2ccc3c(c2)OCCO3)C1)c1c(N)n(CC(C)C)c(=O)[nH]c1=O (configuration not stated) | -5.2% | -2% | . | . |
| CCC(=O)N(CCC(Cc1ccccc1)c1ccc2c(c1)OCO2)Cc1ccccc1F (configuration not stated) | -4.5% | -7% | 7% | -2 |
| COc1ccc(NS(=O)(=O)c2cccc(C(=O)NNC(=O)CNC(=O)c3ccccc3)c2)cc1 | -1.8% | 0% | -4% | . |
| Cc1ccc(SCC(=O)Nc2nccs2)cc1 | -0.4% | 35% | -36% | -6 |
| CCC(C)NC(=O)CCc1c(C)nc2c(c(C)nn2-c2ccccc2)c1C (configuration not stated) | 0.7% | -3% | -2% | . |
| COc1ccc(OC)c(N(CC(=O)NCc2ccccc2)S(=O)(=O)c2ccc(OC)c(OC)c2)c1 | 0.9% | -3% | -8% | . |

Later entries:
| Molecule | Rango-impB inh | Rango release inh | miR-21 reporter | GLA inh pH 4.5 |
| --- | --- | --- | --- | --- |
| COc1ccc(S(=O)(=O)Nc2c(C)c(C)cc3c2ncn3C)cc1 | -3.7% | 5% | 0% | -15 |
| Cc1occc1C(=O)NCc1nc(-c2ccccc2)no1 | 0.0% | 4% | -8% | . |
| O=C(Nc1ccc(F)cc1)c1ccccc1Oc1ccc(C(F)(F)F)cc1[N+](=O)[O-] | 1.4% | -8% | 9% | 1 |
| Brc1cc(Br)c(Oc2cc(Br)c(Br)cc2Br)cc1Br | -1.5% | 15% | . | . |
| COCCn1c(-c2ccc(OC)cc2)nc2ccccc21 | -0.5% | -4% | -29% | 1 |
| CNC(=O)CSCc1c(Cl)cccc1Cl | 1.4% | -2% | -17% | -14 |
| COc1ccc(C(=O)N2CCN(c3ncnc4c(-c5ccccc5)nsc34)CC2)cc1 | -1.8% | 23% | -12% | 3 |
| Nc1[nH]n(-c2ccccc2)c(=O)c1N=Nc1ccccc1[N+](=O)[O-] | 0.1% | -2% | -56% | -2 |
| CCOC(=O)C1=C(C)N(C)C(=O)NC1c1c(C)nn(-c2ccc(C)cc2)c1Cl (configuration not stated) | -1.7% | 0% | 3% | -10 |
| O=C(O)C(Cc1ccc(O)c([N+](=O)[O-])c1)N1C(=O)c2ccccc2C1=O (configuration not stated) | 1.0% | 3% | . | . |

Grouped by structure: the entries above with an aryl thioether with sulfur outside any ring
| Molecule | Rango-impB inh | Rango release inh | miR-21 reporter | GLA inh pH 4.5 |
| --- | --- | --- | --- | --- |
| Cc1c(Cl)cccc1NC(=O)CSc1nnnn1C | 0.1% | 2% | . | . |
| Cn1c(SCCOc2ccccc2F)nc2ccccc2c1=O | 3.1% | ? | 2% | -6 |
| CCCN(C(=O)CSc1nc2cc(S(=O)(=O)N(CC)CC)ccc2o1)C1CCS(=O)(=O)C1 (configuration not stated) | -0.2% | 13% | . | . |
| CSc1ccccc1NC(=O)CN(C)CC(=O)Nc1cc(C)ccc1C | 1.1% | 12% | -5% | -4 |
| O=C(O)CSc1nnc(-c2ccco2)o1 | 3.8% | 3% | 0% | -12 |
| Cc1nc(SCc2ccccc2)n[nH]1 | 3.8% | 13% | -38% | . |
| Cc1ccc(SCC(=O)Nc2nccs2)cc1 | -0.4% | 35% | -36% | -6 |

Part of the list above in order of molecular weight, low to high:
| Molecule | Rango-impB inh | Rango release inh | miR-21 reporter | GLA inh pH 4.5 |
| --- | --- | --- | --- | --- |
| CNC(=O)CSCc1c(Cl)cccc1Cl | 1.4% | -2% | -17% | -14 |
| Cc1occc1C(=O)NCc1nc(-c2ccccc2)no1 | 0.0% | 4% | -8% | . |
| CCOC(=O)C1=C(C)N(C)C(=O)NC1c1c(C)nn(-c2ccc(C)cc2)c1Cl (configuration not stated) | -1.7% | 0% | 3% | -10 |

An excerpt, so the mix of outcomes need not match the whole.
